HIV Env fusion – inhibitors of HIV-1 Env-driven cell-cell fusion, primary screen, HeLa-JRFL effector, CEM21 target cells, luciferase; 1.1% of 360,000 active; inhibition, % at 12.3 µM; AID 651610, 2012;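 active = mean replicate inhibition score of at least 50 and every replicate individually at or above 50; inconclusive = only one of the two criteria met; inactive = mean below 50 and not all replicates reaching 50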;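 also: 0% = plate neutral controls and 100% = maraviroc near 300 nM; one replicate is shown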
UUG fidelity – modulators of yeast start codon fidelity, primary screen, whole organism, S. cerevisiae, single point, plate reader; S. cerevisiae UUG-firefly luciferase reporter, luminescence/redox ratio; activity score, % at 18.7 µM; 0.13% of 350,000 active;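 active = replicate mean at a twofold rise or more, about +100% in these data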;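 also: firefly luciferase made from a UUG start codon reports start codon fidelity; reporter light over untreated wells divided by growth signal over untreated wells; some hits fall short of that in this replicate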
* hit, by the source's call; ? = inconclusive; ! = not active in a repeat; [ ] = another dose, or the depositor's remark.

SMILES | HIV Env fusion | UUG fidelity
Cc1ccc(S(=O)(=O)Nc2ccc3c(c2)C(=O)N([C@H](C)CO)C[C@H](C)[C@H](CN(C)CC2CC2)OCCCC[C@H](C)O3)cc1 | -9[16.7 µM] | 12
COc1ccc(C(=O)Nc2ccc3c(c2)OC[C@@H](C)N(Cc2cocn2)C[C@@H](C)[C@@H](OC)CN(C)C3=O)cc1 | 3[16.7 µM] | 41
C[C@H]1CN([C@@H](C)CO)C(=O)c2cc(-c3cncnc3)cnc2O[C@@H]1CN(C)CC1CCCC1 | -16[16.7 µM] | -5
Cc1ccc(S(=O)(=O)NCC[C@H]2CC[C@H](NC(=O)c3cccc(F)c3)[C@@H](CO)O2)cc1 | 11[16.7 µM] | -5
CC(C)NC(=O)[C@@]1(c2ccc([N+](=O)[O-])cc2)CC(=O)N(CC23CC4CC(CC(C4)C2)C3)[C@@H]1c1ccc(CO)cc1 | -1[16.7 µM] | 0
C[C@@H]1CCCCO[C@@H](CN(C)Cc2ccccc2)[C@H](C)CN([C@@H](C)CO)C(=O)c2cc(NC(=O)Nc3ccc(C(F)(F)F)cc3)ccc2O1 | ? | 27
C[C@H](CO)N1C[C@H](C)[C@@H](CN(C)C(=O)Nc2ccc3c(c2)OCO3)Oc2ccc(NC(=O)CCC(F)(F)F)cc2CC1=O | -5[16.7 µM] | -2
COc1ccc(NC(=O)N(C)C[C@H]2Oc3ccc(NC(=O)C4CC4)cc3CC(=O)N([C@@H](C)CO)C[C@H]2C)cc1 | -1[16.7 µM] | 9
C[C@H]1CN([C@@H](C)CO)C(=O)Cc2cc(NS(=O)(=O)c3ccccc3)ccc2O[C@@H]1CN(C)S(=O)(=O)c1cn(C)cn1 | 3[16.7 µM] | 8
Cc1ccc(S(=O)(=O)N(C)C[C@@H]2Oc3c(NS(=O)(=O)c4ccc(F)cc4)cccc3C(=O)N([C@@H](C)CO)C[C@@H]2C)cc1 | 2[16.7 µM] | -11
C/C=C/c1ccc2c(c1)O[C@@H](CN(C)C(=O)c1ccc3c(c1)OCO3)[C@H](C)CN([C@@H](C)CO)S2(=O)=O | -11[16.7 µM] | 11
O=C(NCC(O)CO)[C@]1(Cc2ccccc2)N=C(c2ccc(OCCCO)cc2)O[C@@H]1c1ccccc1 (stereo not given in full) | -65[16.7 µM] | 16
C[C@H]1CN([C@@H](C)CO)C(=O)c2cc(-c3ccccc3F)cnc2O[C@@H]1CN(C)Cc1ccc(F)cc1 | -17[16.7 µM] | -8
C[C@@H]1CCCCO[C@@H](CN(C)C(=O)Nc2ccccc2)[C@H](C)CN([C@@H](C)CO)C(=O)c2cc(NS(=O)(=O)c3ccccc3)ccc2O1 | -43[16.7 µM] | 3
CCCNC(=O)N1[C@H](C#N)[C@@H](c2ccccc2)[C@@H]1CO | -7[16.7 µM] | 5
Cc1cc(C(=O)Nc2ccc3c(c2)C(=O)N(C)[C@H]2CC[C@@H](CC(=O)N[C@@H](C)c4ccccc4)O[C@H]2CO3)no1 | 5[16.7 µM] | 22
CCNC(=O)C[C@H]1CC[C@H]2[C@@H](COc3ccc(NS(C)(=O)=O)cc3C(=O)N2C)O1 | -4[16.7 µM] | -4
C[C@H](CO)N1C[C@H](C)[C@H](CN(C)Cc2ccccc2)Oc2ccc(NS(=O)(=O)c3cccs3)cc2C1=O | 1[16.7 µM] | -9
COc1ccccc1-c1cnc2c(c1)C(=O)N([C@H](C)CO)C[C@H](C)[C@@H](CN(C)C(=O)c1cccnc1)O2 | -7[16.7 µM] | 5
O=C(C[C@H]1C=C[C@@H](NC(=O)CC2CC2)[C@H](CO)O1)NCc1ccc(Cl)cc1 | 16[16.7 µM] | -17
O=C(C[C@H]1CC[C@H](NS(=O)(=O)c2ccccc2)[C@@H](CO)O1)NCc1ccc(Cl)c(Cl)c1 | -22[16.7 µM] | -5
C[C@@H]1CCCCO[C@H](CN(C)C)[C@H](C)CN([C@H](C)CO)C(=O)c2cc(NS(=O)(=O)c3cccs3)ccc2O1 | 12[16.7 µM] | 2
Cc1noc(C)c1NC(=O)Nc1ccc2c(c1)C(=O)N([C@H](C)CO)C[C@@H](C)[C@@H](CN(C)S(=O)(=O)c1ccccc1)OCCCC[C@H](C)O2 | -41[16.7 µM] | 4
CCC(=O)Nc1ccc2c(c1)C(=O)N(C)[C@@H]1CC[C@@H](CC(=O)NCCc3ccncc3)O[C@H]1CO2 | -14[16.7 µM] | -13
C[C@@H]1CN([C@@H](C)CO)C(=O)c2cccc(NC(=O)Nc3ccc4c(c3)OCO4)c2O[C@@H]1CN(C)C(=O)Nc1cccc2ccccc12 | -11[16.7 µM] | -3
C[C@@H]1CN([C@H](C)CO)C(=O)c2cc(NS(=O)(=O)c3ccccc3)ccc2O[C@@H](C)CCCCO[C@@H]1CN(C)Cc1ccc(Cl)c(Cl)c1 | 69*![16.7 µM] | 15
Cc1cc(C(=O)Nc2cccc3c2O[C@H](CN(C)C(=O)Nc2ccc(C(F)(F)F)cc2)[C@H](C)CN([C@@H](C)CO)C3=O)n(C)n1 | -19[16.7 µM] | 21
O=C(Nc1cc(F)ccc1F)N[C@H]1CC[C@@H](CCNC(=O)c2cnccn2)O[C@@H]1CO | 7[16.7 µM] | 7
C[C@@H]1CCCCO[C@@H](CN(C)Cc2ccc(Cl)c(Cl)c2)[C@H](C)CN([C@@H](C)CO)C(=O)c2cc(NC(=O)CCC(F)(F)F)ccc2O1 | -59[16.7 µM] | 15
COc1cccc(S(=O)(=O)N[C@@H]2CC[C@@H](CC(=O)NCc3ccc(F)cc3)O[C@H]2CO)c1 | -4[16.7 µM] | -7
COc1ccc(S(=O)(=O)N(C)C[C@H]2OCCCC[C@@H](C)Oc3ccc(NC(=O)Nc4ccc(C(F)(F)F)cc4)cc3C(=O)N([C@H](C)CO)C[C@H]2C)cc1 | 9[16.7 µM] | -6
C[C@H]1CCCCO[C@@H](CN(C)S(=O)(=O)c2ccccc2)[C@@H](C)CN([C@@H](C)CO)C(=O)c2cc(NC(=O)c3ccccc3)ccc2O1 | 11[16.7 µM] | -10
C[C@@H]1CN([C@@H](C)CO)C(=O)Cc2cc(NC(=O)Nc3cccc4ccccc34)ccc2O[C@H]1CN(C)C(=O)Nc1ccc2c(c1)OCO2 | 12[16.7 µM] | -9
COc1ccc(NC(=O)Nc2ccc3c(c2)C(=O)N([C@@H](C)CO)C[C@@H](C)[C@H](CN(C)Cc2ccc4c(c2)OCO4)OCCCC[C@H](C)O3)cc1 | -12[16.7 µM] | 27
C[C@@H]1CN([C@@H](C)CO)C(=O)Cc2cc(NS(=O)(=O)c3cn(C)cn3)ccc2O[C@H]1CN(C)C(=O)Nc1ccccc1 | 25[16.7 µM] | -16
C[C@@H]1CCCCO[C@@H](CN(C)Cc2ccc(Cl)c(Cl)c2)[C@@H](C)CN([C@@H](C)CO)C(=O)c2cc(NS(=O)(=O)c3cn(C)cn3)ccc2O1 | -7[16.7 µM] | 8
C[C@@H]1CN([C@H](C)CO)C(=O)c2cc(/C=C/c3ccccc3)cnc2O[C@H]1CN(C)C(=O)Cc1ccccn1 | -6[16.7 µM] | -7
C[C@@H]1CN([C@@H](C)CO)C(=O)Cc2cc(NC(=O)C3CCCCC3)ccc2O[C@@H]1CN(C)S(C)(=O)=O | -6[16.7 µM] | 9
CCCC#Cc1ccc2c(c1)O[C@H](CN(C)C(=O)NC(C)C)[C@@H](C)CN([C@@H](C)CO)S2(=O)=O | -7[16.7 µM] | 14
CCCNC(=O)N(C)C[C@H]1Oc2cc(C#Cc3cccc(F)c3)ccc2S(=O)(=O)N([C@@H](C)CO)C[C@H]1C | -12[16.7 µM] | 12
CO[C@@H]1CN(C)C(=O)c2ccc(NC(=O)c3ccc(F)cc3)cc2OC[C@@H](C)N(C(=O)c2ccc(F)cc2)C[C@@H]1C | -3[16.7 µM] | -19
CC(C)C#Cc1ccc2c(c1)O[C@@H](CN(C)C(=O)c1cccnc1)[C@H](C)CN([C@H](C)CO)S2(=O)=O | 21[16.7 µM] | 5
O=C(C[C@H]1C=C[C@H](NC(=O)Nc2cc(F)ccc2F)[C@@H](CO)O1)Nc1ccccc1 | 29[16.7 µM] | -2
CCC(=O)N[C@H]1C=C[C@H](CC(=O)OC)O[C@H]1CO | 16[16.7 µM] | -3
COc1ccc(-c2cnc3c(c2)C(=O)N([C@@H](C)CO)C[C@H](C)[C@@H](CN(C)Cc2cccnc2)O3)cc1 | -4[16.7 µM] | 2
Cc1noc(C)c1NC(=O)Nc1ccc2c(c1)CC(=O)N([C@@H](C)CO)C[C@@H](C)[C@H](CN(C)Cc1ccccc1)O2 | -11[16.7 µM] | 32
C[C@@H]1CN([C@@H](C)CO)C(=O)c2cc(NC(=O)Cc3ccccc3)ccc2O[C@H]1CN(C)Cc1ccc(C(=O)Nc2ccccc2N)cc1 | 22[16.7 µM] | 7
C[C@@H]1CN([C@H](C)CO)C(=O)Cc2cc(NS(=O)(=O)c3cn(C)cn3)ccc2O[C@H]1CN(C)Cc1ccc(C(=O)O)cc1 | -3[16.7 µM] | -24
C[C@H](CO)N1C[C@H](C)[C@@H](CN(C)Cc2ccc3c(c2)OCO3)OCCCC[C@H](C)Oc2ccc(NS(=O)(=O)c3ccc(Cl)cc3)cc2C1=O | 16[16.7 µM] | 8
C[C@@H]1CN([C@@H](C)CO)C(=O)c2cc(NS(C)(=O)=O)ccc2O[C@@H](C)CCCCO[C@@H]1CN(C)S(=O)(=O)c1ccc(F)cc1 | 2[16.7 µM] | 8
CCC(=O)N(C)C[C@H]1Oc2cc(/C=C/c3ccccc3)ccc2S(=O)(=O)N([C@@H](C)CO)C[C@H]1C | 59*[16.7 µM] | 25
C[C@@H]1CN([C@@H](C)CO)C(=O)c2cc(C3=CCCCC3)cnc2O[C@H]1CN(C)Cc1ccccn1 | 19[16.7 µM] | -14
CNC[C@@H]1Oc2cc(-c3ccc(OC)cc3)ccc2S(=O)(=O)N([C@H](C)CO)C[C@H]1C | -5[16.7 µM] | 9
CN1C(=O)c2cc(NS(=O)(=O)c3ccccc3Cl)ccc2OC[C@@H]2O[C@@H](CC(=O)O)CC[C@H]21 | -12[16.7 µM] | -1
C[C@@H]1CCCCO[C@H](CN(C)Cc2ccc(C(F)(F)F)cc2)[C@H](C)CN([C@@H](C)CO)C(=O)c2cc(NS(C)(=O)=O)ccc2O1 | 24[16.7 µM] | 10
C[C@H]1CN([C@@H](C)CO)C(=O)c2cc(NC(=O)Nc3ccc(F)cc3)ccc2O[C@@H]1CN(C)Cc1ccccc1 | -3[16.7 µM] | -1
COc1ccc(S(=O)(=O)Nc2cccc3c2O[C@@H](CN(C)C(=O)Nc2ccccc2)[C@H](C)CN([C@@H](C)CO)C3=O)cc1 | 8[16.7 µM] | 5
C[C@@H]1CN([C@@H](C)CO)C(=O)c2cc(NS(=O)(=O)c3cn(C)cn3)ccc2O[C@H]1CN(C)C(=O)Nc1ccc(C(F)(F)F)cc1 | 0[16.7 µM] | -11
COc1ccc([Si](C)(C)[C@H]2[C@H](CCO)O[C@@]3(C(=O)N(C)c4ccccc43)[C@@H]2C)cc1 | 31[16.7 µM] | 3
C[C@@H]1CN([C@@H](C)CO)C(=O)c2cc(NC(=O)NC3CCCCC3)ccc2O[C@@H]1CN(C)Cc1ccccc1 | -29[16.7 µM] | 14

Six structures out of the list, ordered by molar mass, low to high:
SMILES | HIV Env fusion | UUG fidelity
COc1ccc([Si](C)(C)[C@H]2[C@H](CCO)O[C@@]3(C(=O)N(C)c4ccccc43)[C@@H]2C)cc1 | 31[16.7 µM] | 3
CN1C(=O)c2cc(NS(=O)(=O)c3ccccc3Cl)ccc2OC[C@@H]2O[C@@H](CC(=O)O)CC[C@H]21 | -12[16.7 µM] | -1
C[C@@H]1CN([C@@H](C)CO)C(=O)c2cc(NC(=O)NC3CCCCC3)ccc2O[C@@H]1CN(C)Cc1ccccc1 | -29[16.7 µM] | 14
COc1ccc(S(=O)(=O)Nc2cccc3c2O[C@@H](CN(C)C(=O)Nc2ccccc2)[C@H](C)CN([C@@H](C)CO)C3=O)cc1 | 8[16.7 µM] | 5
C[C@@H]1CN([C@@H](C)CO)C(=O)c2cc(NS(=O)(=O)c3cn(C)cn3)ccc2O[C@H]1CN(C)C(=O)Nc1ccc(C(F)(F)F)cc1 | 0[16.7 µM] | -11
C[C@H](CO)N1C[C@H](C)[C@@H](CN(C)Cc2ccc3c(c2)OCO3)OCCCC[C@H](C)Oc2ccc(NS(=O)(=O)c3ccc(Cl)cc3)cc2C1=O | 16[16.7 µM] | 8

Additional entries:
SMILES | HIV Env fusion | UUG fidelity
C[C@@H]1CN([C@@H](C)CO)C(=O)c2cc(NS(=O)(=O)c3ccc(Cl)cc3)ccc2O[C@@H](C)CCCCO[C@H]1CN(C)C(=O)Nc1cccc2ccccc12 | 6[16.7 µM] | -1
COc1cccc(-c2cnc3c(c2)C(=O)N([C@H](C)CO)C[C@H](C)[C@H](CN(C)C(=O)NC2CCCC2)O3)c1 | -15[16.7 µM] | 25
C[C@H]1CCCCO[C@H](CN(C)Cc2ccncc2)[C@@H](C)CN([C@@H](C)CO)C(=O)c2cc(NC(=O)c3ccccc3)ccc2O1 | 16[16.7 µM] | -4
CC(C)NC(=O)N(C)C[C@H]1Oc2ccc(NS(C)(=O)=O)cc2C(=O)N([C@H](C)CO)C[C@@H]1C | -4[16.7 µM] | 1
CC(C)NC(=O)N[C@@H]1C=C[C@@H](CC(=O)NCCN2CCCC2)O[C@@H]1CO | -15[16.7 µM] | -11
C[C@H](CO)N1C[C@H](C)[C@H](CN(C)Cc2ccc(C(=O)Nc3ccccc3N)cc2)Oc2ccc(NS(=O)(=O)c3ccccc3)cc2C1=O | 9[16.7 µM] | -4
O=C(NCC[C@H]1CC[C@@H](NC(=O)C2CCC2)[C@@H](CO)O1)c1cnccn1 | -17[16.7 µM] | -7

A portion of the library, so the mix of outcomes need not match the whole.
